Autofluor counter – counter-screen for toxin protease inhibitors: compound fluorescence. compound autofluorescence counterscreen, microsphere flow cytometry; hits give high values. fluorescence intensity (concentration not given with the values). actives 3.1% (n = 360,000). AID 624483;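 active = at least 3 SD above the mean of all compounds, about 16000 in these data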;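 note: 100 nL of 1 mM stock went into each well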
An asterisk follows results filed as active. An excerpt; the hit share may differ from the screen's.

mol	Autofluor counter
C[C@H]1CN([C@@H](C)CO)C(=O)CCCn2cc(nn2)CO[C@@H]1CN(C)S(=O)(=O)c1ccc(-c2ccccc2)cc1	3776
CCCn1c(=S)[nH]c2cc(C(=O)N3CCN(c4ccc(F)cc4)CC3)ccc2c1=O	4168
Nc1ccn([C@@H]2O[C@H](C(=O)NCCCN3CCCC3=O)[C@@H](O)[C@H]2O)c(=O)n1	5260
CC(=O)N1CCOC12CCN(Cc1ccccc1)CC2	4082
CCCCN1C(=O)C(CC(=O)NCc2cccc3ccccc23)CC(C(=O)N(C)C)=C1C (configuration not stated)	3700
CCN(CCn1cccn1)C(=O)c1ccc(OC2CCN(C(=O)CCOC)CC2)cc1	3515
Cc1cc(C(=O)N2CCc3ccccc32)ccc1[N+](=O)[O-]	4192
COc1cc(C(C)=O)ccc1OCC(=O)Nc1ccc(S(=O)(=O)N2CCCCC2)cc1	3803
CCC1NC(=O)c2cc3ccccc3cc2-n2c1nc1cc(OC)c(OC)cc1c2=O (configuration not stated)	3475
CC1(Cc2ccccc2C#N)C(=O)Nc2cc(-c3ccccc3Cl)ccc21 (configuration not stated)	3116
O=C(c1cnc(Cc2c[nH]c3ccccc23)c(I)c1)N1CCCCC1	3647
O=C(Nc1nnc(-c2ccco2)o1)c1ccc(S(=O)(=O)N2CCCCC2)cc1	3771
COc1ccc(C=C2CCc3ccccc3C2=O)cc1	7097
NC(=O)c1ccsc1NC(=O)COC(=O)CCc1ccccc1	3853
CN(C)CCN1CCN(C2CN(C3CCCCC3)S(=O)(=O)C2)CC1 (configuration not stated)	5396
COc1ccccc1CNCc1ccc2c(c1)OCO2	3757
COc1ccccc1OCC(=O)Nc1ccc(C(=O)Nc2ccccc2C(=O)O)cc1	3951
Cc1ccc(-c2nc3c(Cl)cc(C(F)(F)F)cn3c2Cc2ccccc2)cc1	6068
CC(C)(C)NC1=NCCNC(c2ccccc2)=C1	3718
CCC(C)[C@H]1CNC(=O)C(=O)N1CCc1cccc2ccccc12 (some centres not stated)	5597
COc1cc(C(O)c2nc(-c3cccc(C(C)C)c3)cs2)ccc1F (configuration not stated)	3873
OC[C@@H]1CN(CCN2CCOCC2)C[C@H](n2cnc3c(NCc4ccc(F)cc4)ncnc32)O1	2723
Cc1cc2nc(NC(=O)C3(C)CCN(C)C3)[nH]c2cc1C (configuration not stated)	2887
Cc1cccnc1C(NC(=O)C1CCN(CCOc2ccc(F)cc2)CC1)c1ccc(Cl)cc1 (configuration not stated)	3802
Cc1cccc(C(O)c2ncc(-c3ccccc3)[nH]2)c1C (configuration not stated)	2869
COc1cccc(/C=N/NC(=O)c2nnn(-c3nonc3N)c2CN(C)C2CCCCC2)c1	2951
CCCCCCN1C[C@@H](n2cc(-c3ccc(F)cc3)nn2)[C@H](O)C[C@@H]1c1ccccc1	3747
Cc1onc(-c2ccccc2)c1C(=O)NC1CCCCC1C (configuration not stated)	3867
CN(C)C(=O)CNc1ccn2nc(-c3cccc(OCCN4CCOCC4)c3)cc2n1	2941
CCOC(=O)C(Cc1ccc(O)cc1)NC(=O)c1cc2c(cn1)[nH]c1ccccc12 (configuration not stated)	6307
CC(=O)Nc1ccc(C(=O)N2CCCCC2c2cc(C(=O)NC(C)C)no2)cc1 (configuration not stated)	4057
O[C@H]1CN(Cc2cccs2)[C@@H](c2ccccc2)C[C@@H]1n1cc(C2CC2)nn1	4069
CCOc1ccc(CCN2C(=O)C(=O)N([C@@H](Cc3ccc(O)cc3)CN3CCC[C@H]3CN3C(=O)C(=O)NC[C@@H]3CC(C)C)C[C@@H]2Cc2ccccc2)cc1	4412
O=C(Nc1ccc([N+](=O)[O-])cc1)c1cccc([N+](=O)[O-])c1	3784
CCCCCc1c(-c2ccc(OC)c(OC)c2)ncn1CCc1ccccc1OC	6305
CCOC(=O)[C@]12CCC=C1N(Cc1ccccc1)C(=O)[C@H](CC(=O)NCc1ccccc1)C2	5981
CC1(C)CN(Cc2ccccc2)C(=O)[C@H]1CC(=O)Nc1ccc(Br)cc1	3563
CC(=O)C1=CCC(c2ccc(C(C)C)cc2)N(S(=O)(=O)c2ccc(C)cc2)C1 (configuration not stated)	6523
OCC[C@@H]1C[C@H](O)[C@@H](O)[C@@]2(OCc3cc(C(F)(F)F)ccc32)O1	3426
O=C1CCCN1c1ccc([N+](=O)[O-])cc1	3059

Overlap with the part before: 5 entries; new compounds follow.
mol	Autofluor counter
CCOC(=O)[C@]12CCC=C1N(Cc1ccccc1)C(=O)[C@H](CC(=O)NCc1ccccc1)C2	5981
CC1(C)CN(Cc2ccccc2)C(=O)[C@H]1CC(=O)Nc1ccc(Br)cc1	3563
CC(=O)C1=CCC(c2ccc(C(C)C)cc2)N(S(=O)(=O)c2ccc(C)cc2)C1 (configuration not stated)	6523
OCC[C@@H]1C[C@H](O)[C@@H](O)[C@@]2(OCc3cc(C(F)(F)F)ccc32)O1	3426
O=C1CCCN1c1ccc([N+](=O)[O-])cc1	3059
COc1ccc(-c2coc3c(C(=O)N4CCN(C)CC4)cccc23)c(C)c1	3714
O=C(Oc1ccc[nH]c1=O)C1CC1	3392
O=S(=O)(Nc1ccccc1N1CCCC1)c1ccccc1C(F)(F)F	3064
CCOC(=O)C1(C)CCCN(C(=O)c2cc(OC)c(OC)c(OC)c2)C1 (configuration not stated)	4047
NC(c1ccc(F)c(F)c1)c1nc(-c2cc(F)cc(F)c2)cs1 (configuration not stated)	3517
CC(=O)Nc1cc(-c2cccc(F)c2)cn2c(-c3ccc(F)c(Cl)c3)cnc12	3765
CNC[C@@H]1Oc2cc(Br)ccc2S(=O)(=O)N([C@H](C)CO)C[C@@H]1C	4522
CC(C)C[C@H]1COc2cc(N3CCN(C)CC3)ccc2S(=O)(=O)N1	4193
CCOC(=O)C1=CCN(S(=O)(=O)c2ccccc2Cl)C1c1ccc(C)cc1 (configuration not stated)	5673
c1ccc(OCCNc2ccn3nc(-c4ccco4)cc3n2)cc1	4307
CC1(C(=O)Nc2ccc3c(c2)OCO3)CCN1Cc1ccccc1OC(F)F (configuration not stated)	3547
Cn1c(NCCc2ccncc2)nc2cc(-c3cccc(C(F)(F)F)c3)sc2c1=O	3986
COc1cc(-c2cc(NC(C)=O)c3ncc(-c4cc(OC)c(OC)c(OC)c4)n3c2)cc(OC)c1OC	2968
COc1ccc([C@H]2CN(c3ccccc3)C(=O)[C@@H]2CC(=O)Nc2ccccc2)cc1	4087
COc1ccc(CNC(=O)C2CCN(S(=O)(=O)c3ccc4nc5c(c(C(=O)O)c4c3)CCCC5)CC2)cc1	3472
CN1CCCC(C)(C(=O)Nc2ccc(-n3cccc3)cc2)C1 (configuration not stated)	4206
COc1ccc(C(=O)Nc2nc(CC(=O)NCc3c(F)cccc3F)cs2)cc1	2702
Cn1nc(C(C)(C)C)cc1C(=O)N1CCCCC1c1cc(C(=O)Nc2cccc3c2CCCC3)no1 (configuration not stated)	3568
CC(=O)Nc1cnc(-c2ccccc2O)cn1	3498
C[C@@H]1CN([C@H](C)CO)C(=O)c2cc(Br)cnc2O[C@H]1CN(C)Cc1cccnc1	3673
COC(=O)c1ccc2nc(-c3ccc(C)cc3)c(Cc3cccc(Cl)c3)n2c1	6378
C=CCNc1ncnc2c1ncn2[C@H]1CN(Cc2ccc(F)cc2)C[C@@H](CO)O1	2852
O=C(NCCO)c1cccc(-c2cnc3cccnn23)c1	3861
Cc1cccc(C)c1-n1nnnc1C1(C)CCC(=O)N1CCCn1ccnc1 (configuration not stated)	5626
O=C(O)c1[nH]c(-c2ccccc2)c2c1C(=O)N(C1CC1)C2=O	6127
CC(=O)Nc1ccc(C(=O)N2CCCCC2c2cc(C(=O)Nc3ccccc3)no2)cc1 (configuration not stated)	3066
C#CC1(N2CCCCC2)CCCCC1	3454
COc1ccc(C(O)c2nc(-c3cnn(C)c3)cs2)cc1 (configuration not stated)	3743
c1cc(-c2cc3c(o2)CCCC3OCCN2CCOCC2)cs1 (configuration not stated)	6050
COc1ccccc1C#CC1=CC(=O)CC(C)(C)C1	3618
CC(C)NC(=O)c1ccc2sc([C@H]3C[C@H](O)[C@@H](CO)O3)nc2c1	4270
CCOC(=O)C1=C[C@@H](C(C)(C)C)N(S(=O)(=O)c2ccc(C)cc2)[C@H]1c1ccc(C)cc1	5988
CSc1ccc(OC2(C)CCN(Cc3ccc4c(c3)OCCO4)C2)cc1 (configuration not stated)	4104
CN(C)c1ccc(CNC(=O)C2Cc3c(-c4cccc(C(N)=O)c4)ccnc3O2)cc1 (configuration not stated)	3600
O=C1NC[C@H](CCCCN2CCN(CCc3ccccc3)C(=O)C2=O)N(CC2CCCCC2)C1=O	5204
CNC(=S)N1CCC(C(=O)c2ccc(Cl)cc2)CC1	4004
C[C@H](O)[C@@H]1CN2CCc3c([nH]c4ccccc34)[C@@H]2C[C@@H]1N(C)C(=O)Nc1ccc(F)cc1	3411
Cc1ccc(Cc2c(-c3ccco3)nc3ccc(C)cn23)cc1	5052
CCOC(=O)c1ccc(-c2ccc(N3C(c4cccc(OC)c4)=Cc4ccc(F)cc4C3CC(C)=O)cc2)cc1F (configuration not stated)	5073
CC(=O)NC(c1ccccc1)c1nc(-c2cccc(C#N)c2)cs1 (configuration not stated)	3872
CC(=O)OCC(C)n1c(=O)c2ccccc2n1C(C)=O (configuration not stated)	6204
O=C(CCCN1C(=O)/C(=C\c2cccc(Br)c2)SC1=S)Nc1ccc(C(=O)O)cc1	2833
COc1ccc(-c2cc(NC=O)c3ncc(-c4cccc(C(=O)NCCN(C)C)c4)n3c2)cn1	3480
CCOc1cc(/C=N/Nc2ccc(S(=O)(=O)Nc3ccccc3C(=O)O)cc2[N+](=O)[O-])cc(Cl)c1O	3237
Fc1ccc(-c2ccc3nccn3c2)cc1Cl	3708
Cc1cc(Cl)ccc1OC(C)C(=O)Nc1cccc(S(=O)(=O)N2CCOCC2)c1 (configuration not stated)	2936
CCOC(=O)c1c(C)c(C)n2c1NC(=O)C2	5458
CCCCC(=O)N(C)c1c(C)nc2ccc(C(=O)N(CC)CCN(C)C)cn12	3932
CCc1ccccc1NC(=O)CCC(=O)N1CCN(C(C)=O)CC1	4075
CC12CCC3c4ccc(O)c([N+](=O)[O-])c4CCC3C1CCC2=O (configuration not stated)	3628
Cc1cccc(C(=O)N2CCC(C)(C(=O)NS(=O)(=O)C3CC3)C2)c1C (configuration not stated)	3984
O=C(Nc1ccc([N+](=O)[O-])cc1Cl)c1cccc([N+](=O)[O-])c1	3786
N#CN1C2CCC1CC(O)(c1ccccc1)C2 (configuration not stated)	5390
Cc1cccc(C)c1C(O)c1ncc(-c2cccc3ccccc23)[nH]1 (configuration not stated)	3574
Fc1ccc(Nc2nc(NCc3ccccc3)nc3ccsc23)cc1	3773
CCc1nc2ccc(C(=O)Nc3ccc(OC)c(OC)c3)cn2c1N(C)Cc1ccc(OC)cc1	4069
CCOC(=O)N(C)C[C@H]1OCc2cnnn2CCCC(=O)N([C@@H](C)CO)C[C@@H]1C	3714
Cc1ccc([C@H]2C[C@@H](n3cc(C4CC4)nn3)[C@H](O)CN2C(=O)C2CCCCC2)cc1	3480
CC1(C(=O)NS(=O)(=O)c2ccc(F)cc2F)CCN1C(=O)CCc1ccccc1 (configuration not stated)	4072
Cc1cc(F)ccc1-c1cc(C(=O)NCc2ccc(C(F)(F)F)cc2)[nH]n1	2979

Part of the list above, field by field.
CCCCC(=O)N(C)c1c(C)nc2ccc(C(=O)N(CC)CCN(C)C)cn12
  Autofluor counter: 3932
CCc1ccccc1NC(=O)CCC(=O)N1CCN(C(C)=O)CC1
  Autofluor counter: 4075
CC12CCC3c4ccc(O)c([N+](=O)[O-])c4CCC3C1CCC2=O (configuration not stated)
  Autofluor counter: 3628

Going on with the list.
mol	Autofluor counter
O=C(NCC(c1cccs1)N1CCOCC1)c1cc(F)cc(F)c1 (configuration not stated)	3056
CC(C)c1ccc(C(=O)N2CCOCC2c2cc(C(=O)Nc3ccccc3)no2)cc1 (configuration not stated)	4415
Cn1ccc2c(N3c4ccccc4CCc4ccccc43)cc3c(c21)C1CCC3C1 (configuration not stated)	3875
CCN(CC)C(=O)c1cccc(-c2csc(C(NC(C)=O)c3ccc(F)c(F)c3)n2)c1 (configuration not stated)	3903
CN(C)S(=O)(=O)c1cccc(NC(=O)COc2ccccc2C(=O)Nc2ccccc2)c1	3779
N#Cc1ccc2sn(-c3ccccc3)c(=O)c2c1	4005
COC1CC(N)C2OC(c3ccccc3)OCC2O1 (configuration not stated)	2865
Cn1c(SCC(=O)NCCC2=CCCCC2)nnc1C(F)(F)F	2922
COc1cccc(CN2CCC2(C)C(=O)Nc2ccc(C)cc2)c1F (configuration not stated)	3486
COc1ccc(CNC(=O)c2sc(=O)n(Cc3ccc(S(=O)(=O)N(C)C)cc3)c2C)cc1	4296
O=C(C[n+]1cccc(C(=O)Nc2ccccc2)c1)c1ccc(Cl)cc1	6430
Cc1ccc(OCCNC(=O)[C@H]2O[C@@H](n3ccc(N)nc3=O)[C@H](O)[C@@H]2O)cc1C	5936
CCCCNC(=O)C1c2ccccc2OCC(=O)N1CCOC (configuration not stated)	5112
Cc1cc(OCC(=O)OCC(=O)N(Cc2ccccc2)C(C)(C)C)ccc1Cl	3425
O=C1NC[C@H](Cc2ccccc2)N(C[C@@H]2CCCN2C[C@H](Cc2ccc(O)cc2)N2C[C@H](Cc3ccccc3)N(CCc3ccccc3)C(=O)C2=O)C1=O	5629
CCOC(=O)C1(C)CCCN(C(=O)c2ccc(OC)c(OC)c2)C1 (configuration not stated)	4138
O=C1NC[C@@H](CCCCN2C[C@H](Cc3ccccc3)N(Cc3ccccc3)C(=O)C2=O)N(Cc2ccccc2)C1=O	5695

Source: PubChem BioAssay
